Source: PubChem (several laboratories)
Arbovirus anti = antivirals against arbovirus infection, primary screen, cell-based, full library, 10K replicate subset. arbovirus infection cell-based antiviral screen. inhibition, % at 10 µM. 200,000 compounds, 0.37% hits. AID 1251, 2008;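 active = inhibition from about 30%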;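 also: bluetongue infection of BSR cells; cell survival read as ATP light after 72 h; 0% = infected wells without compound and 100% = uninfected wells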
Mtb betalactam = beta-lactam sensitization of Mtb H37Rv, H37Rv | M. tuberculosis H37Rv growth with meropenem, percent inhibition; hits of this screen are not shown here | inhibition, % at 25 µM | 330,000 compounds, 0.27% hits | AID 434955, 2010;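 active = about 74% or more and at least 40 points above the plate without the antibiotic, then above 30% in a dose series; inconclusive = first-round hits that could not be retested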;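 also: growth measured after seven days incubation then overnight dye step; 0% = bacteria only wells and 100% = bacteria with antibiotic; twin plates without the antibiotic show which effects depend on it; some results filed as inactive read as strong as hits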
RecA intein inh = Mtb RecA intein splicing inhibitors, primary screen, biochemical, fluorescence, HTS; inhibition, %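 (about 9 µM by stock and volumes)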; cell-free RecA intein splicing; Protein RecA (Mycobacterium tuberculosis (strain ATCC 25618 / H37Rv)), P9WHJ3; 290,000 compounds, 0.75% hits; in the data active = inhibition above about 30%; inconclusive = no clear call, values can overlap the other calls;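 also: 0% = vehicle wells and 100% = reference inhibitor control wells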
Target sequence (P9WHJ3 whole entry, looked up): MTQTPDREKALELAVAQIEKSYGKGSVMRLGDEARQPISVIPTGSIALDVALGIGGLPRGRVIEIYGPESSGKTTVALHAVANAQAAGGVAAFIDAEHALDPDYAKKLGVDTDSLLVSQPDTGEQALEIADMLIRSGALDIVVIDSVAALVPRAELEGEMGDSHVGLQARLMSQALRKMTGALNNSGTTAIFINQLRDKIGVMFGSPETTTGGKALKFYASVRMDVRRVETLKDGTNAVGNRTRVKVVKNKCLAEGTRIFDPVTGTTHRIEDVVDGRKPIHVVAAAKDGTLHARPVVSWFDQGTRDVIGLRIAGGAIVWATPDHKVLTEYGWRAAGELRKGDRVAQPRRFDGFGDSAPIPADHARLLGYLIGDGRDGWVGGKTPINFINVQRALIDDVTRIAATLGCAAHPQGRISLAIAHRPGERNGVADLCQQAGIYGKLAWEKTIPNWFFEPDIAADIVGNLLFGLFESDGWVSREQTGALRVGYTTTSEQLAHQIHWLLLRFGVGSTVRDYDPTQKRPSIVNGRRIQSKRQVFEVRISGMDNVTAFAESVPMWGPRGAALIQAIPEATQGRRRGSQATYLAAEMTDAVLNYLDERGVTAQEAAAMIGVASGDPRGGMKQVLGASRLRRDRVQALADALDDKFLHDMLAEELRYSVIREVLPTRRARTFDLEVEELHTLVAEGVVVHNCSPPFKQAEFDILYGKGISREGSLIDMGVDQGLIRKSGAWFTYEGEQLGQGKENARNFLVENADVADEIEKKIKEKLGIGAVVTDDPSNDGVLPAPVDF
Mtb growth = M. tuberculosis H37Rv growth inhibitors, H37Rv strain (AID 1626); 220,000 compounds, 0.95% hits; inhibition, % at 10 µM, or IC50 in µM where a hit was titrated; M. tuberculosis H37Rv growth inhibition; higher % means a stronger effect;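 active = confirmed in a dose series; inconclusive = inhibition above 80% but not taken into the dose series; inactive = below 80% or under 30% at every dose of the series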;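 also: bacteria incubated seven days before Alamar blue readout; 0% = bacteria only wells and 100% = bacteria with antibiotic wells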
YopH PTP inh = YopH tyrosine phosphatase inhibitors, primary screen, biochemical, fluorescence Ex485/Em525; YopH tyrosine phosphatase [Yersinia enterocolitica]; inhibition, %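 (about 10 µM by stock and volumes)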; 140,000 compounds, 0.16% hits; AID 898, 2007;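 active = inhibition of 50% or more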;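 also: controls were vehicle for no effect and minimum signal wells for full effect; inactives centre near -20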
Arbovirus anti repeat = recorded beside Arbovirus anti, whose call it bears; inhibition, %; measured here: 10K subset replicate screen; many hits read low in the repeat;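 first of two repeat runs on a subset; 0% = infected and 100% = uninfected wells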
An asterisk follows results filed as active; ? = inconclusive; nt = not tested or not shown. The list is partial. The share of hits here may be higher or lower than overall.

Preview (five entries):
SMILES	Arbovirus anti	Mtb betalactam	RecA intein inh	Mtb growth	YopH PTP inh	others
CCOC(=O)N1CCC(N2CCCC(C(=O)c3cccc(OC(C)C)c3)C2)CC1 (stereo unspecified)	nt	1	-0.1	4%	nt
CCNc1nnc(-c2ccccc2OC)s1	6	2	-1.0	-4%	-21	Arbovirus anti repeat=1
CN(CC(=O)Nc1ccccc1Br)C(=O)c1cccnc1Nc1cccc(C(F)(F)F)c1	nt	99	5.4	nt	nt
CC(CCc1ccccc1)NC(=O)CN1CCN(c2ccccc2)CC1 (stereo unspecified)	0	-2	-0.6	-5%	nt
NC(=S)n1[nH]c(-c2ccc([N+](=O)[O-])cc2)c(N=Nc2cccc(Cl)c2)c1=O	4	nt	12	-8%	nt

This part in full, from the start:
SMILES	Arbovirus anti	Mtb betalactam	RecA intein inh	Mtb growth	YopH PTP inh	others
CCOC(=O)N1CCC(N2CCCC(C(=O)c3cccc(OC(C)C)c3)C2)CC1 (stereo unspecified)	nt	1	-0.1	4%	nt
CCNc1nnc(-c2ccccc2OC)s1	6	2	-1.0	-4%	-21	Arbovirus anti repeat=1
CN(CC(=O)Nc1ccccc1Br)C(=O)c1cccnc1Nc1cccc(C(F)(F)F)c1	nt	99	5.4	nt	nt
CC(CCc1ccccc1)NC(=O)CN1CCN(c2ccccc2)CC1 (stereo unspecified)	0	-2	-0.6	-5%	nt
NC(=S)n1[nH]c(-c2ccc([N+](=O)[O-])cc2)c(N=Nc2cccc(Cl)c2)c1=O	4	nt	12	-8%	nt
O=C(NCc1ccco1)c1ccc(COc2ccccc2Cl)cc1	-7	5	5.5	13%	-7
Cc1cc(C)cc(OCC(=O)N(Cc2ccc(N(C)C)cc2)C2CCS(=O)(=O)C2)c1 (stereo unspecified)	nt	-9	1.0	7%	nt
COCCCN1Cc2ccccc2C1=N	8	4	3.2	4%	-3
CCOC(=O)N1CCN(S(=O)(=O)c2ccc(C)c(C)c2C)CC1	5	-10	nt	6%	-14
CCN(CC)C(=O)Cn1cc(C(=O)C(=O)NCC2COc3ccccc3O2)c2ccccc21 (stereo unspecified)	7	28	-2.1	nt	nt
COc1cccc(Nc2nc(-c3cccc(N4C(=O)c5ccccc5C4=O)c3)cs2)c1	-3	15	-0.6	3%	-13
CCOC(=O)C1CCCN(C(=O)c2cccc(NC(=O)C(CC)CC)c2)C1 (stereo unspecified)	-3	-3	-0.2	-1%	nt
CCN(C(C)=O)c1ccc(Oc2nc(OC)cc(OC)n2)cc1	3	4	-1.4	0%	nt
COc1ccc2c(c1)oc(=O)c1c3ccccc3[nH]c21	0	nt	5.8	9%	nt
CCC1(C)Cc2nc3[nH]c(=S)n(-c4ccccc4C)c(=O)c3cc2CO1 (stereo unspecified)	nt	-2	-16	-1%	nt
C=CCSc1nc2c(c(=O)[nH]c(=O)n2C)n1C/C=C(/C)Cl	2	4	14	3%	-18
O=C(CCC(=O)OCc1ccc([N+](=O)[O-])cc1)Nc1ccccc1Cl	9	-9	2.2	2%	nt
O=C1CC(c2ccccc2Oc2cccc(Cl)c2)C(n2cncn2)C(=O)C1C1NCCc2ccccc21 (stereo unspecified)	nt	-2	3.8	-9%	nt
CCN(CC)C(=O)C12CC3CC(CC(Cl)(C3)C1)C2	6	0	1.3	-9%	-24
CC(C)NC(=O)COc1cccc2ccccc12	5	9	-1.3	5%	nt
CCC(=NCc1cc(OC)cc(OC)c1)c1c(O)[nH]c(=O)[nH]c1=O	nt	-7	-6.5	-4%	nt
CCN1CCN(C(=O)c2ccccc2NC(=O)c2ccc(Cl)cc2)CC1	nt	1	-1.2	nt	nt
Cc1[nH]c2ccc(C(=O)NCCCN3CCCC3)cc2c1C	nt	0	0.3	nt	nt
O=C(/C=C/c1cccc(F)c1)NCCCn1ccnc1	nt	-6	0.7	nt	nt
O=C1NC(c2cccc(Br)c2)=N/C1=C\c1ccco1	0	14	8.6	10%	6
Clc1ccc(N2CCN(c3ccnc(Cl)n3)CC2)cc1	nt	-7	7.9	nt	nt
COc1ccc(CCNC(=O)CSC2=NS(=O)(=O)c3ccccc3N2)cc1OC	nt	-10	-3.5	nt	nt
COc1ccc(C2CC2/C(=N/O)c2ccccc2)cc1 (stereo unspecified)	3	3	9.9	2%	nt
Cc1ccc(NC(=O)Cn2c(C)cc(C)c(C#N)c2=O)c(Cl)c1	-1	-6	-1.2	-14%	-45
O=C(Nc1ccccc1)N1CCC2(CC1)OCCO2	4	8	-0.4	6%	nt
CCOc1ccc(CCNC(=O)CCS(=O)(=O)c2ccc(C)cc2)cc1OCC	nt	3	0.5	nt	nt
CN(C)c1cc(N/N=C/c2ccccc2C(F)(F)F)nc(N(C)C)n1	nt	0	0.0	nt	nt
CCOC(=O)c1nnn(-c2nonc2N)c1CSc1ccccc1	8	7	-3.2	-11%	-14
O=C(Nc1ccc(Cl)c(Cl)c1)c1ccc(Cl)c(Cl)c1	nt	7	-1.0	2%	nt
CCOc1ccc(S(=O)(=O)NC2CCCCC2C)cc1 (stereo unspecified)	nt	3	1.4	nt	nt
COC(=O)c1ccc(C)c(NS(=O)(=O)c2ccc(OC)c(OC)c2)c1	-1	-5	4.0	-3%	-39
Nc1ccc(C(=O)c2cccs2)cc1[N+](=O)[O-]	-2	-2	-1.0	4%	nt
O=C(CSc1ccc(-c2ccncc2)nn1)c1ccc(Cl)cc1	-13	-8	0.1	-2%	nt
CCOc1ccc(S(=O)(=O)NCCC(=O)NCC2(N3CCCCC3)CCCCC2)cc1	nt	?	3.1	nt	nt
CN1CCc2c(sc3nc(SCC(=O)N4CCCCC4)n(-c4ccccc4)c(=O)c23)C1	nt	23	4.4	nt	nt
O=C(Nc1cc(Cl)ccc1N1CCOCC1)c1ccc(N2CCCC2=O)cc1	nt	-11	1.3	nt	nt
O=C(NCc1cccs1)C(=O)c1cn(CC(=O)N2CCCC2)c2ccccc12	5	-7	-1.1	nt	nt
COc1cc(/C=C(\C#N)c2nc3ccccc3[nH]2)ccc1OC(=O)c1ccco1	7	2	-1.7	12%	-81
NC(=S)NN=C(c1ccccc1)c1ccccc1	nt	-6	3.2	nt	nt
COc1ccc2nc(C)c(C(=O)NN)cc2c1	1	-4	-0.2	-3%	-19
COc1ccc(C(=O)Oc2cccc(Nc3ncnc4ccccc34)c2)cc1OC	7	-3	-1.2	6%	-5
CN1C(=O)NC(c2ccccc2)C2=C1CN(CCc1ccccc1)C2=O (stereo unspecified)	3	5	7.5	-3%	-10
Cc1ccc(NS(=O)(=O)c2ccc(Br)s2)nc1	-2	-8	-0.1	-19%	nt
CC(=O)Nc1ccccc1-c1nc2ccccc2nc1OCC(=O)c1ccc2ccccc2c1	-8	61	0.8	15%	-42
COc1cccc(NC(=O)C(c2ccccc2)N2CCCCC2)c1 (stereo unspecified)	2	2	0.1	-3%	nt
Remaining list, next part:
SMILES	Arbovirus anti	Mtb betalactam	RecA intein inh	Mtb growth	YopH PTP inh	others
COCc1nc2oc3ccc(C)cc3c(=O)c2cc1C(=O)OC	nt	-2	-0.2	nt	nt
O=C(Nc1cccc(Cl)c1)c1cccc(Oc2ccc([N+](=O)[O-])cc2Cl)c1	-22	1	18	7%	-17
CCn1cnc2c1c(=O)n(Cc1nnc3n1-c1ccccc1SC3)c(=O)n2Cc1ccccc1	-6	3	-11	1%	-35
Nc1nnc(CSCc2ccccc2Cl)s1	nt	0	2.4	3%	nt
O=C(O)CC(NC(=O)COc1ccc(Cl)cc1Cl)C(=O)O (stereo unspecified)	-5	1	1.1	-7%	-68
Cc1cccc2sc(N3CCN(C(=O)C4COc5ccccc5O4)CC3)nc12 (stereo unspecified)	nt	37	8.0	nt	nt
CN(C)c1ccc(/C=N/NC(=S)NCc2ccco2)cc1	-6	-4	-4.4	25%	-9
COc1ccc2c(C)c(CCC(=O)NC3CC3)c(=O)oc2c1C	nt	0	3.4	nt	nt
COc1ccc(C(=O)Oc2ccc(/C=N/Nc3ccc(Cl)c(C(=O)O)c3)cc2OC)cc1	nt	8	6.8	nt	nt
CCOC(=O)c1[nH]c2ccc(OC)cc2c1NC(=O)CN1CCC2(CC1)OCCO2	4	3	-1.6	13%	-36
CCOc1ccc2nc(SCC(=O)NC3CC3)sc2c1	nt	-3	-4.1	nt	nt
N#Cc1ccc(C(=O)CSc2n[nH]c(=O)n2-c2cccnc2)cc1	nt	-3	-3.6	17%	nt
O=c1c(C(c2ccc(O)cc2)c2c(O)nc3n(c2=O)CCS3)c(O)nc2n1CCS2	26	-7	-2.8	nt	-25
COc1cccc(NC(=O)COc2ccccc2C(N)=O)c1	0	1	-0.2	-3%	-17
O=C1NC(=O)C(Cc2c[nH]c3ccccc23)N1 (stereo unspecified)	nt	5	1.6	nt	nt
CN(C)c1ccc(C=C(C#N)C#N)cc1	0	1	0.5	6%	-4
Cc1nn(Cc2ccccc2)c(C)c1C=C1C(=O)NC(=S)NC1=O	-4	3	-3.9	-11%	-24
Cc1ccc(C(=O)Cn2c(N3CCOCC3)nc3c2c(=O)n(C)c(=O)n3C)cc1	-6	-4	2.6	-1%	-51
CCOC(=O)C1=C(C)C2C3C(=O)N(c4ccccc4C)C(=O)C3C1(C)C1C(=O)N(c3ccccc3C)C(=O)C21 (stereo unspecified)	-9	-2	0.4	0%	-26
Cc1cc(-c2nc3ccccc3o2)c2ccccc2n1	-11	50	4.1	-3%	-43
O=C(COC(=O)/C=C/c1ccc(C(F)(F)F)cc1)NC1CCCC1	nt	40	0.8	nt	nt
c1ccc(CSc2nnc(-c3ccccc3)c(-c3ccccc3)n2)cc1	nt	7	4.9	13%	nt
O=C(CSc1nc2ccccc2o1)N/N=C/c1ccccc1C(=O)O	nt	-3	nt	-5%	nt
c1ccc2c(CN3CCOCC3)c3ccccc3c(CN3CCOCC3)c2c1	-5	94	-0.1	1%	-24
CC(=O)C1=NOC(CNC(=O)c2c(-c3ccccc3Cl)noc2C)C1 (stereo unspecified)	3	-10	6.1	-1%	-13
COc1ccc(OC)c(CCNC(=O)c2ccc(CS(=O)(=O)c3ccc(Br)cc3)o2)c1	2	-2	-0.3	2%	nt
COc1cccc(C2c3c(oc4ccccc4c3=O)C(=O)N2CCCN(C)C)c1OC (stereo unspecified)	1	-9	16	-10%	-35
O=C(CCNS(=O)(=O)c1ccc2c(c1)CCC(=O)N2)NCc1cccnc1	4	4	-4.5	-7%	-8
CCN(CC)S(=O)(=O)c1cccc(C(=O)Nc2ccc(C#N)cc2)c1	-1	-21	0.6	0%	-2
Cn1c(Cn2c(=O)sc3ccccc32)nnc1SCC(=O)Nc1ccc2c(c1)OCO2	-18	2	-0.2	-6%	-17	Arbovirus anti repeat=-4
COc1ccc(OC(=O)c2cc3cc(Cl)ccc3oc2=O)cc1	nt	93	-3.4	nt	nt
COc1ccc(CC(C(=O)Nc2cccc(F)c2)c2nn[nH]n2)c(OC)c1 (stereo unspecified)	4	-1	1.0	-8%	-30
Cc1nc(N2CCC(C)CC2)c2c(C)c(C(=O)Nc3ccc4c(c3)OCCO4)sc2n1	nt	99	2.5	nt	nt
Nn1c(-c2ccccc2Cl)nnc1-c1ccccc1Cl	-16	-1	nt	-4%	-21
O=C(Oc1ccccc1O)c1cccc2ccccc12	-8	0	-4.0	-12%	nt
Fc1ccc(-c2cc3nc(-c4ccccc4)cc(N4CCN(CCN5CCOCC5)CC4)n3n2)cc1	-22	nt	0.5	?	-48
CN(CC(=O)Nc1ccc(F)c(F)c1F)C(=O)C1CCCO1 (stereo unspecified)	nt	-9	0.4	nt	nt
CCN1CCN(C(=O)c2cc3cc([N+](=O)[O-])ccc3oc2=O)CC1	4	0	1.6	-4%	nt
CCN1CCN(C(=O)C(=O)c2c(C)[nH]c3ccccc23)CC1	12	-8	-1.9	1%	nt
CCC1Oc2ccc(C)cc2N(CC(=O)NCCN2C(C)CCCC2C)C1=O (stereo unspecified)	-5	-7	0.1	5%	-28
CN(C)S(=O)(=O)c1ccc(/C(O)=C2/C(=O)C(=O)N(Cc3cccnc3)C2c2ccncc2)cc1 (stereo unspecified)	6	7	-0.8	-4%	-25
CCOc1ccc(N(CC(=O)NC2CCCCC2)C(=O)CNC(=O)c2ccco2)cc1	nt	0	-0.5	0%	-13
CCCNc1c(NS(=O)(=O)c2ccc(NC(=O)CC)cc2)c(=O)oc2ccccc12	nt	3	1.3	nt	nt
CCOC(=O)c1[nH]c(C)c(C(=O)NCc2ccccn2)c1C	7	2	0.0	-6%	-13
O=C(O)CCCC(=O)Nc1ccc(Br)cc1	2	7	-2.5	-5%	-3
CC/C(=C\C1CCCCC1)C(NP(=O)(c1ccccc1)c1ccccc1)c1ccccc1 (stereo unspecified)	-37	-5	3.2	14%	-18
